# Source: PubChem BioAssay (National Center for Advancing Translational Sciences (NCATS))
# Sfp inh: blocks B. subtilis Sfp PPTase activity | Q9F4F7 | Biochemical Sfp PPTase activity, qHTS | Potency, µM, without a hit: max response, negative = inhibition, actives largely listed as inhibitors | 310,000 compounds, 3.5% hits | AID 1490; active means well fitted inhibition curve with a large enough effect; inconclusive means small, poorly fitted or top-dose-only effect, or another doubt; inactive means no such curve, though single readings can be large or run the other way;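 further: the enzyme is Sfp with the accession as filed and its product quenches rhodamine fluorescence; potency means the concentration at half of the fitted maximal effect; 0% = enzyme reaction without inhibitor and -100% = no enzyme wells; top concentration of the series not given in the record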
#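 Step 1, compound plus 15 nM Sfp-PPTase, 15 min, room temperature. Step 2, add rhodamine-CoA (5 uM) and BHQ-2-YbbR (12.5 uM). Step 3, read 525/598 nm fluorescence at 0 and 30 min.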
# Menin MLL FP FL: menin-MLL binding inhibition, fluorescein peptide; Fluorescence polarization, fluorescein-MLL peptide displacement from menin; FP activity change, % at 61.4 µM; 290,000 tested, under 10 active; AID 1766; inconclusive = falling polarisation curve, or a change in total fluorescence; inactive = total fluorescence flat and polarisation flat or rising; no compound was filed as active; the % refers to the polarisation; negative = inhibition;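 further: % of control where 0% means no effect; inhibitors lower the polarisation; unlabelled MLL peptide was the positive control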
# TRPML1 blocker: blocks the human TRPML1 channel; Q9GZU1; TRPML1-inducible cells, Ca2+ dye fluorescence, FDSS; active compounds read low; inhibition of EC80 agonist-evoked calcium signal; activity change, negative = inhibition, % (no concentration beside the values); 390,000 compounds, 0.02% hits; AID 624415; in the data active means activity change below about -50%; inconclusive means about -30% to -50%; inactive means above about -30%;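 further: stimulus is agonist 54-4 at its EC80 concentration; on the % scale 0 is the no-effect control and ±100 the full control effect; compound concentration not given in the record; the text of the record puts the active cut at -80%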
# Target sequence (Q9GZU1 whole entry, looked up): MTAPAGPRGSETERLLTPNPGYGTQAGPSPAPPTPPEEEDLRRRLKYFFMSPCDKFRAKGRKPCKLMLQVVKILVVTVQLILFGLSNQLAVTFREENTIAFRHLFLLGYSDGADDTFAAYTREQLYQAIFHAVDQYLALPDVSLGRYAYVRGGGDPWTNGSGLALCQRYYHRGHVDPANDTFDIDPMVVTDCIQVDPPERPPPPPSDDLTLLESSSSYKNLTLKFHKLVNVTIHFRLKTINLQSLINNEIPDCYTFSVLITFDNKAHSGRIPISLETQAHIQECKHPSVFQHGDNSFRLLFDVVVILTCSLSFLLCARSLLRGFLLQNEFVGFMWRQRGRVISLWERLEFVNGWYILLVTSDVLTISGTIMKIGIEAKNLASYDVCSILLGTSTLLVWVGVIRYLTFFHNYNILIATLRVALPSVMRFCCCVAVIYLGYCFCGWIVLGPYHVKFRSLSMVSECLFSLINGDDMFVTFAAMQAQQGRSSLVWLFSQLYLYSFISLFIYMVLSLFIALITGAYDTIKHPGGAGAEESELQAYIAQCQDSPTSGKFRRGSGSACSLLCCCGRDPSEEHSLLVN
#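 Calcium fluorescence in TRPML1-DL cells induced overnight with Tet: a 110 s read after compound pin addition, then a 110 s antagonist read after challenge with 54-4 at 4 uM final (EC80).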
# PINK1 expr mod: changes PINK1 expression | 410,000 compounds, 0.2% hits | AID 624263 | PINK1 immunofluorescence, high-content cytometry, 24 h | Potency, µM (doses to about 76.6 µM), for inactives: at the highest dose activation (PINK1 increase), most hits filed as activators; active = well fitted activation curve with a large enough effect; inconclusive = small, poorly fitted or top-dose-only effect; inactive = flat fitted curve, though single readings scatter; cell line not stated here;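 further: potency means the concentration at half of the fitted maximal effect; % of control where 0% means no effect; nearly all actives have a fitted effect of over 65% in size; a mitochondrial uncoupler was the plate control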
#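 PINK1 protein, normally rapidly degraded, was detected by immunofluorescence after 24 hour compound treatment of a stable cell line. Titration data (5 concentrations) came from laser-scanning cytometry, with CCCP-treated wells as controls.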
# ClpP mod: qHTS Assay for Activators of ClpP; Potency, µM (doses to about 57.5 µM), for inactives: at the highest dose activity change, negative = active; purified B. subtilis ClpP, FRET peptide cleavage, 20 min; 340,000 compounds, 1.9% hits; active = well fitted falling curve with a large enough effect; inconclusive = small, poorly fitted or top-dose-only effect; inactive = no such curve, though single readings can be large or run the other way; further: potency means the concentration at half of the fitted maximal effect; the source files actives as falling curves though it sought activators and does not explain the sign; nearly all actives have a fitted effect of over 65% in size; many hits overshoot -100%
# Target sequence (P80244 whole entry, looked up): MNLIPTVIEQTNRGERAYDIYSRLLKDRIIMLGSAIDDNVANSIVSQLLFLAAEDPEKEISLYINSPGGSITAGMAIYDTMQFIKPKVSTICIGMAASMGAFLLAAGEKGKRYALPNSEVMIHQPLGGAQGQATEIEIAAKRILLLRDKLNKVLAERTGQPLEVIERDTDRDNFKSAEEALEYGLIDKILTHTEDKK
#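 Purified B. subtilis ClpP, 10 microg/mL final in Tris/HCl pH8 with KCl, BSA, glycerol and Tween-20, cleaved an Abz/nitrotyrosine-quenched decapeptide. Fluorescence (ex 320, em 430) was read at 0 and 20 min at room temperature. Delta was normalized to 5.8 microM ADEP and DMSO/no-enzyme controls.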
# TRPV1 potentiator: potentiators of human vanilloid receptor 1 (TRPV1); Q8NER1; TRPV1-expressing cells, Fluo-8 calcium influx, capsaicin EC20 potentiation; host cell line not named in the record; control for the full effect not named in the record; potentiation, % at 8.33 µM; 320,000 compounds, 0.02% hits; AID 540277; active means potentiation above 80%; inconclusive means 30% to 80%; inactive means below 30%; further: 0% is about no effect
#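 TRPV1-expressing cells were cultured overnight at 35.5C and loaded with Fluo-8 calcium dye for 40 to 90 min at room temperature. After a 10 s baseline, compound was added and calcium influx was read kinetically for 3 min (ex 480/em 520 nm).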
# TRPML1 ag: activates the human TRPML1 channel; Q9GZU1; activation, % (concentration not given with the values); TRPML1-expressing cells, Ca2+ dye fluorescence, FDSS; host cell line not named in the record; reference of the full effect not given here; 410,000 compounds, 0.12% hits; in the data active = activation above about 50%; inconclusive = about 30% to 50%; inactive = below about 30%; further: 0% is about no effect; the text of the record puts the active cut at 80%
#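 Calcium fluorescence on an FDSS kinetic reader gave the read-out. Tet-induced TRPML1-DL cells were plated overnight, dye-loaded (Ca8 with quencher, 45-90 min, room temperature, dark), then read 110 s after compound addition, and again 110 s after 4uM final 54-4 (EC80).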
# Active calls of the source: *; u = inconclusive; x = not tested or not shown; & = joins results of further samples; [ ] = remark or other dose.
SMILES	Sfp inh	Menin MLL FP FL	TRPML1 blocker	PINK1 expr mod	ClpP mod	TRPV1 potentiator	TRPML1 ag
COc1ccc(S(=O)(=O)c2c(O)c3ccc(C(=O)NCc4ccc(Cl)cc4)cc3[nH]c2=O)cc1	x	x	13	-1.9%	-12%	x	0.0
COc1cc2c(cc1NC(=O)COc1ccc(Br)c(C)c1)oc1ccccc12	x	x	-3	-0.7%	-18%	x	0.0
O=C1CCN(Cc2ccccc2)CCN1[C@H](COc1ccccc1)Cc1ccccc1	7%	0.6	7	27%	-0.3%&2.0%	-16	-0.2&-0.3
CCNc1ccc(C(=O)OCC(=O)NCCN2C(=O)CSC2=O)cc1[N+](=O)[O-]	4%	0.0	20	1.7%	-1.6%	-4	0.3
CCc1cccc(CC)c1NC(=O)CSc1nc2ccc(N3C(=O)C4C5C=CC(C5)C4C3=O)cc2s1 (configuration not stated)	10%	2.6	-6	2.1%	-3.4%	2	1.7
CCn1cnc2c(=O)oc3ccc(S(=O)(=O)Nc4ccc(OC)cc4)cc3c21	x	x	0	3.3%	0.0%	x	0.9
O=C(N/C(=C\c1cccc([N+](=O)[O-])c1)C(=O)N1CCOCC1)c1ccc([N+](=O)[O-])cc1	-14%	-6.5	10	0.3%	0.5%	14	-1.0
COCCN(C(=O)Nc1ccc(OC)cc1OC)C1CCN(C(C)C)CC1	17%	0.2	-7	x	-0.4%	2	0.5
Cc1ccc(C)c(Cn2c(=O)n(C(C)C)c(=O)c3oc4ccccc4c32)c1	x	x	5	0.1%	-5.2%	x	-0.7
CCOC(=O)N1CCN(Cc2nc3c(c(=O)n(C)c(=O)n3C)n2CCCc2ccccc2)CC1	1%	1.6	3	-4.6%	-6.3%	3	0.0
CC(C)C(=O)NC(c1cccc([N+](=O)[O-])c1)c1c(O)ccc2ccccc12 (configuration not stated)	18%	0.5	0	6.5%	x	7	2.8
COc1ccccc1-c1nnc2sc(COc3ccc(Cl)cc3Cl)nn12	14%	4.1	31	-6.8%[38.3 µM]	-0.4%	15	3.1
Cc1cc(C)c2c(N)c(C(=O)Nc3nccs3)sc2n1	-4%	0.7	-13	2.1%	35µM*	-1	-0.2
CCOC(=O)c1cnn(-c2ccccc2)c1NC(=O)c1ccccc1C	1%	1.6	16	7.8%[38.3 µM]	-0.4%	-22	-0.2
c1ccc2oc(SCc3cn4ccccc4n3)nc2c1	-8%	-2.1	11	1.7%[38.3 µM]	-0.1%	-10	1.4
COc1ccc(S(=O)(=O)N2CCC(C(=O)NCCC(=O)Nc3cccc(Cl)c3)CC2)cc1	13%	-0.2	-22	-0.3%	-1.0%	9	0.4
CC(C)c1nc(C#N)c(N2CCOCC2)o1	13%	-0.1	-5	-1.0%	1.8%	21	0.3
O=C(NCC1CCS(=O)(=O)C1)NCC1CCS(=O)(=O)C1 (configuration not stated)	13%	5.3	0	4.1%[38.3 µM]	0.3%	-6	0.9
O=C(CSc1nnc(-c2ccncc2)o1)Nc1cc(F)ccc1F	x	x	2	-0.7%	-2.5%	-9	0.0
O=C(Cn1ccc([N+](=O)[O-])n1)N1CCc2ccccc21	-14%	0.1	-6	-0.6%	0.5%	0	1.2
CN1CCN(CCNC(=O)Nc2ccccc2[N+](=O)[O-])CC1	7%	-1.0	-6	0.6%	-5.7%	3	0.3
Cc1csc(NC(=O)c2ccc(S(=O)(=O)N3CCCC3)cc2)n1	14%	1.0	-1	-0.3%	1.9%	-15	0.8
Cc1ccc(Cn2ccc(NC(=O)c3noc4c3CCc3ccccc3-4)n2)cc1	16µM*	1.4	22	11%	124%	10	2.3
Cc1cccc2nc3ccccc3cc12	x	x	-6	-0.2%	-1.4%	x	-0.8
COc1cccc(C(=O)N2C(C(C)C)COc3cc(Br)ccc3S2(=O)=O)c1 (configuration not stated)	x	x	43	19%	-2.4%	x	0.8
CCOC(=O)c1nn(-c2ccc(C)c(C)c2)c(=O)c2c(N)scc12	8.9µM*	-5.9	-17	4.9%	-3.7%	8	0.0
C#CCCOC(=O)N1C2=NC(C(=O)OC)=C(C(=O)OC)[C@@H]3Nc4ccccc4[C@]23C[C@H]1C(=O)OC	9%	-3.4[11.7 µM]	13	-0.7%	-0.2%	x	0.3
NC(=O)C1CCN(C(=O)c2ccc3c(c2)N(Cc2cccc(Cl)c2)C(=O)c2ccccc2S3=O)CC1 (configuration not stated)	x	x	-21	2.6%	-1.6%	x	-0.2
CCc1ccc2c(c1)Sc1ccccc1CC2N1CCN(C)CC1 (configuration not stated)	x	x	28	-0.8%	0.6%	x	0.6
Cc1nnc(SC(C)C(=O)NC2CCCc3ccccc32)n1-c1ccccc1 (configuration not stated)	5%	3.1	28	-2.4%	0.9%	3	0.8

# Shown with values under each structure: entries from further up.
# Every second line gives: Sfp inh	Menin MLL FP FL	TRPML1 blocker	PINK1 expr mod	ClpP mod	TRPV1 potentiator	TRPML1 ag
- CCc1cccc(CC)c1NC(=O)CSc1nc2ccc(N3C(=O)C4C5C=CC(C5)C4C3=O)cc2s1 (configuration not stated)
    10%	2.6	-6	2.1%	-3.4%	2	1.7
- CCn1cnc2c(=O)oc3ccc(S(=O)(=O)Nc4ccc(OC)cc4)cc3c21
    x	x	0	3.3%	0.0%	x	0.9
- O=C(N/C(=C\c1cccc([N+](=O)[O-])c1)C(=O)N1CCOCC1)c1ccc([N+](=O)[O-])cc1
    -14%	-6.5	10	0.3%	0.5%	14	-1.0

# Two entries from above, with values under each structure.
# Second line of a record: Sfp inh, Menin MLL FP FL, TRPML1 blocker, PINK1 expr mod, ClpP mod, TRPV1 potentiator, TRPML1 ag
NC(=O)C1CCN(C(=O)c2ccc3c(c2)N(Cc2cccc(Cl)c2)C(=O)c2ccccc2S3=O)CC1 (configuration not stated)
→ x, x, -21, 2.6%, -1.6%, x, -0.2
CCc1ccc2c(c1)Sc1ccccc1CC2N1CCN(C)CC1 (configuration not stated)
→ x, x, 28, -0.8%, 0.6%, x, 0.6

# (continued)
SMILES	Sfp inh	Menin MLL FP FL	TRPML1 blocker	PINK1 expr mod	ClpP mod	TRPV1 potentiator	TRPML1 ag
CN1CCN(C(=O)/C(C#N)=C/c2ccc(OC(F)F)cc2)CC1	13%	-2.9	-3	0.4%	x	11	0.4
CCCCOCCCNC(=O)C[C@@H]1C[C@@]2(C(=O)OCC)CCCC=C2N(Cc2ccc3c(c2)OCO3)C1=O	x	x	x	-0.6%	-3.9%	x	-0.9
COc1ccc(Br)c(-c2nc(CS(=O)(=O)c3ccc(F)cc3)no2)c1	5%	6.5	1	-1.1%	-2.8%	x	0.9
COc1cc(NC(C)=O)c2ncccc2c1NC(C)=O	15%	-3.0	-11	1.7%	-6.1%	23	2.4
O=C(Nc1ccc(OC(F)(F)F)cc1)Oc1ccccc1N1CCCCC1	6%	3.3	-29	21%	-0.1%	-14	-0.1
O=C(Nc1cccnc1)c1ccc(COc2ccccc2Br)cc1	-18%	-4.7	-2	8.1%	-0.5%	-31	0.4
COc1cc2c(cc1OC)CN(C(=O)c1cc(Cl)nc(Cl)c1)CC2	7%	-0.2	-9	1.6%	-8.3%	3	2.3
CN(CCc1ccccn1)C(=O)c1ccc(OC2CCN(Cc3ccccn3)CC2)cc1	2%	x	-2	0.1%	-11%	u	0.0
N#Cc1nc(Cc2ccccc2)oc1NCc1ccccc1	5%	-1.2	-2	-0.1%	0.8%	0	-0.4
CCOC(=O)c1cnc(SCc2nc(N)nc(Nc3ccc(F)cc3)n2)nc1N	-2%	3.3	-4	1.4%[38.3 µM]	10%	6	-0.6
O=C(CCN1C(=O)c2ccccc2C1=O)NCCC1=CCCCC1	16%	5.1	57	29%[38.3 µM]	1.3%	7	0.0
Nc1ccc(S(=O)(=O)N2CCOCCOCCOCCOCCOCC2)cc1	8%	-3.9	5	0.2%	-1.3%	-11	0.7
COC(=O)Cc1cc(C)cc2c(=O)cc(-c3ccoc3)oc12	x	x	-7	-0.9%	x	x	0.9
Cc1ccc(N=Nc2c(N)nn3c(C)cc(C)nc23)cc1	17%	6.1	-10	24%	1.5%	3	3.9
CCOc1ccccc1N(C)C(=O)c1nn(-c2ccc(OC)cc2OC)c(=O)c2ccccc12	10%	2.1	4	-1.0%	x	13	0.8
COc1cccc(C(=O)Nc2ccc(C(=O)OCc3cc(=O)n4nc(C5CC5)sc4n3)cc2)c1	x	x	4	5.6%	-20%	x	2.6
CCOc1ccc(S(=O)(=O)NCCC(=O)N2CCCN(C)CC2)cc1	21%	x	-25	0.3%	0.6%	-4	0.3
CCOc1cc(C2C(C(=O)c3ccco3)=C(O)C(=O)N2CCc2ccccc2)ccc1O (configuration not stated)	13%	-0.2	-4	-0.5%	-0.1%	12	0.7
COc1ccc(N2C(=O)c3ccc(C(=O)Nc4ccccc4OC)cc3C2=O)cc1	-19%	-4.9	-8	2.9%	-2.7%	u	1.2
COc1cccc(-c2nnc(Nc3nc4c(F)cccc4s3)o2)c1	13%	-3.4	17	x	28µM*	-2	0.5
COC(=O)c1sc(S(=O)(=O)N2CCN(c3ccc(OC)cc3)CC2)c(C(=O)OC)c1C	12%	0.0	5&10	u	0.7%&-1.3%	14	0.4&-0.3
CCS(=O)(=O)c1nc(S(=O)(=O)c2ccc(Cl)cc2)c(NCc2ccco2)s1	-13%	-2.5	-3	1.6%	0.8%	4	-0.1
COc1ccc(CNC(=O)C(c2ccco2)N(C(=O)Cc2cccs2)c2cccnc2)cc1 (configuration not stated)	12%	-1.2	-3	-0.8%	x	-9	-0.7
CCn1cc(S(=O)(=O)NCCc2ccc(F)cc2)cn1	3%	x	38	-1.0%	-1.0%	-5	-0.2
NC(=S)c1cc2cc(Br)ccc2oc1=O	3%	-1.3	6	-0.4%	x	-4	1.3
CSc1ccc(Cl)c(C(=O)NCCCn2ccnc2)c1	6%	-0.7	1	-1.0%	-7.7%	6	1.0
O=C(C1=C(O)C(=O)N(CCN2CCOCC2)C1c1cccc(Br)c1)c1cccs1 (configuration not stated)	3%	x	-7	0.3%	x	-12	-0.6
COc1ccc(OCC2c3cc(OC)c(OC)cc3CCN2C(=O)COc2ccc(Cl)cc2Cl)cc1 (configuration not stated)	x	x	-10	-4.4%	-4.2%	x	0.4
